rRNA inh HTS: inhibitors of bacterial rRNA selective over humanized ribosomes; AID 720706; 1.6% of 350,000 active; GFP signal change (wild-type ribosome), % (no concentration beside the values); E. coli WT GFP vs humanized-ribosome RFP mutants, fluorescence, 24 h; hits give low values; DMSO median 0, no signal -100;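 active = significant combined selectivity score with lowered wild-type GFP, culture density cut under 30%, mutant RFP and density less affected; inactive = any of these conditions unmet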; note: one replicate is shown; some compounds called inactive have numbers as strong as hits
AF4-AF9 inh: MLL-AF4/AF9 protein interaction inhibition | 0.47% of 350,000 active | P42568 | AlphaScreen, biotin-AF4 peptide binding to FLAG-AF9 | inhibition, % at 10 µM;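 active = every replicate reaching a set inhibition limit, whatever the replicate mean, cut at about 25% in these data; inconclusive = mean inhibition reaches that limit but some replicates miss it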;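 note: 0% = plate neutral control median and 100% = total signal loss; the record names both 10 and 1 µM as test concentration; the first replicate is given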
Vif A3G: inhibitors of Vif binding to APOBEC3G peptide, primary screen, biochemical, TR-FRET, GST-Vif 1-94, biotin-A3G peptide, dose response retest (AID 1117319); inhibition, %; hits with a dose series show IC50 in µM; TR-FRET GST-Vif / biotin-A3G peptide binding; higher % means a stronger effect; test concentration not given here; strong numbers were not always called active; 0.57% of 260,000 active;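 active = above the screen mean plus three standard deviations and confirmed in dose response; inconclusive = results disagree or hit not tested in dose response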;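 note: Vif residues 1-94 fused to GST binding biotinylated APOBEC3G peptide 110-148; 0% = full assay without inhibitor and 100% = GST in place of GST-Vif; retest series ran down from 100 µM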
FGF22 binding: binders of recombinant human FGF22 by thermal shift. Q9HCT0. SYPRO orange fluorescence; percent of sucrose octasulfate shift, DMSO zero. calls only at 9.99 µM. 1.5% of 340,000 active. AID 651658;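 active = melting point raised past a set limit in the mean and every replicate; inconclusive = no clear call; three in four hits are not shown here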
Target sequence (Q9HCT0 whole entry, looked up): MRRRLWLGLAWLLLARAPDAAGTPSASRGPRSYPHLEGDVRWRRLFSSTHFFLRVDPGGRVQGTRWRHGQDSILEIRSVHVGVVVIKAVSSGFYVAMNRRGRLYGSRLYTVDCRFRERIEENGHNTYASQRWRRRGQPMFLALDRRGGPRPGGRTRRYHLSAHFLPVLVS
HNF4A DNA FP: change in binding of human HNF4 alpha to DNA; P41235; HNF4a-FITC DNA binding, fluorescence polarization, 1 h; activity change, % at 10 µM; 0.3% of 360,000 active; in the data active = activity change above about 30%, passing the limit was not always enough;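 note: controls were the assay level and a saturating level of protein; the project sought stronger binding though the title names inhibitors; some compounds called inactive have numbers as strong as hits; positive values seem to mean higher polarization but the record does not say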
Target sequence (P41235 whole entry, looked up): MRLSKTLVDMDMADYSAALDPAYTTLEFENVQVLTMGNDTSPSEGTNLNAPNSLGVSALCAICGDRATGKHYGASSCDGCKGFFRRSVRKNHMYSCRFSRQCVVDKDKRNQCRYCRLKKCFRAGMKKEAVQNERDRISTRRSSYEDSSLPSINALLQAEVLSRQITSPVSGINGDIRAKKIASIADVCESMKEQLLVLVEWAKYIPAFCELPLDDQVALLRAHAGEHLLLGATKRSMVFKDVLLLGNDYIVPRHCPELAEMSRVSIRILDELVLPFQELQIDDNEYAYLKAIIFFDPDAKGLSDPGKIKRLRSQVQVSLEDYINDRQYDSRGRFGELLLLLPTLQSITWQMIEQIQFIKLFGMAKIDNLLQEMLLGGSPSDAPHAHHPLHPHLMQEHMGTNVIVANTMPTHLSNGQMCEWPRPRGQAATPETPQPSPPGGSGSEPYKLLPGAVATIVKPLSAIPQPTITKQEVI
ALR H2O2 inh: blocks human ALR sulfhydryl oxidase activity; P55789; purified ALR, DTT oxidation, H2O2 HRP-luminol luminescence; inhibition, % (test concentration not listed); 3.8% of 290,000 active; AID 485317;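 active = mean and each replicate at 75% or more; inconclusive = only one of the two met; inactive = neither met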;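 note: stock transfer was 7.5 nL into about 7.5 µL; 0% = neutral wells and 100% = wells with inactivated enzyme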
Target sequence (P55789 whole entry, looked up): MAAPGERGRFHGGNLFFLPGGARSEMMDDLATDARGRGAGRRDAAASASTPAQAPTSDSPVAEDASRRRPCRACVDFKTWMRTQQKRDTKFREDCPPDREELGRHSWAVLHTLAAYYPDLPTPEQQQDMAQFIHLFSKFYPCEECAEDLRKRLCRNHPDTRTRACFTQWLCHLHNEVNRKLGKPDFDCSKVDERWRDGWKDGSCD
Ecoli growth: inhibitors of Escherichia coli growth | OD600, 23 h; hits give low values | 0.21% of 330,000 active | OD600 absorbance (concentration not given with the values) | AID 1053175;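 active = OD600 absorbance below the run mean of sample wells minus 3.6 SD, in any replicate, cut at about 0.56 in these data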;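 note: stock transfer was 300 nL into about 60 µL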
rRNA inh HTS OD600: second read-out of rRNA inh HTS, no call of its own (marks repeat the call); OD600 change, %; measured here: OD600 growth;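 optical density of the mix in the first replicate; 0 = DMSO median and -100 = no signal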
rRNA inh HTS RFP: further read-out of rRNA inh HTS, marked with its call; RFP signal change, %; measured here: RFP humanized mutant strains;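 first replicate; 0 = DMSO median and -100 = no signal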
* marks the source's active call; other numbers are inactive results; i = inactive; ? = inconclusive; · = no result given. This is a subset (hit frequency here may not be typical).

SMILES	rRNA inh HTS	rRNA inh HTS OD600	rRNA inh HTS RFP	AF4-AF9 inh	Vif A3G	FGF22 binding	HNF4A DNA FP	ALR H2O2 inh	Ecoli growth
O=C(NCCc1ccccc1)c1ccc2c(c1)N(Cc1ccccc1)CCS2	·	·	·	·	-4.1%	·	5.3	10.1	0.712
CCC/C(=N\NC(=O)C1CC1)c1ccc(Br)cc1	1.0	2.6	-0.7	2.0	·	i	4.1	-5.2	·
COc1cc2nc(=S)n3[nH]c(COc4ccccc4C)nc3c2cc1OC	·	·	·	·	·	·	-0.9	20.7	0.626
COc1ccc2c(CC(=O)NNC(=O)c3cccs3)coc2c1	8.6	11.0	-1.3	0.8	5.0%	i	4.3	·	0.701
COc1ccc(NC(=O)CCN(c2ccc(OC)cc2)S(=O)(=O)c2ccc(C)c(C)c2)cc1	-26.6*	-17.1*	4.3*	1.3	·	i	-1.8	·	0.713
O=[N+]([O-])c1ccc(Cl)cc1CN1CCCCCC1	5.4	5.6	-1.1	-2.5	3.6%	i	2.9	1.9	·
CNC[C@H]1Oc2ccc(NC(=O)Cc3cn(C)c4ccccc34)cc2C(=O)N([C@@H](C)CO)C[C@@H]1C	-4.4	-7.2	-1.6	2.2	·	i	·	·	·
O=C(/C=C/c1cccs1)c1ccc(N2CCOCC2)cc1	5.3	-2.2	11.6	9.0	·	i	2.3	0.7	0.704
O=C(NC[C@H]1[C@H](c2ccccc2)[C@@H](CO)N1C(=O)C1CC1)NC1CCCC1	-0.1	11.1	-1.5	0.1	·	i	·	·	·
CCOc1ccc(C)cc1S(=O)(=O)n1nc(C)cc1C	8.0	-5.9	-1.9	-0.8	-9.4%	i	2.6	-16.8	0.713
Cc1cccc(Oc2ccc(Cl)cc2N)c1	-48.9	-72.7	-7.4	1.4	·	i	3.6	-10.4	0.706
Cc1ccc(NC(=O)Nc2cccc(C(F)(F)F)c2)nc1	7.7	5.9	-0.5	-0.5	13.6%	i	-0.2	-1.0	0.688
O=S(=O)(c1ccccc1)N1CCCc2nc(-c3ccccc3)ccc21	-5.3	-11.2	4.7	-1.2	·	·	·	·	·
CCCN(C)C[C@H]1OCCCC[C@H](C)Oc2ccc(NS(=O)(=O)c3ccccc3)cc2C(=O)N([C@H](C)CO)C[C@H]1C	-0.3	-6.1	-3.9	3.8	·	i	·	·	·
CCc1ccc(NC(=O)C(=O)NCc2ccccn2)cc1	-7.7	-3.2	-3.0	-0.6	·	i	1.4	-2.8	0.692
O=C(O)c1c(Cl)c(Cl)c(Cl)c(Cl)c1C(=O)N1CCCCCC1	-0.1	-3.4	-1.3	2.9	1.8%	i	-0.4	15.5	0.653
CC(=O)Nc1ccc(NC(=O)C(C)OC(=O)CNC(=O)c2cccs2)cc1 (stereo not drawn)	10.5	15.5	1.0	-2.5	-4.2%	·	-0.2	-3.4	0.698
Clc1nssc1=Nc1nncs1	0.6	4.5	0.3	-12.3	·	i	0.5	38.3	0.78
N#Cc1c(N2CCN(C(=O)c3ccco3)CC2)nc(-c2ccccc2)c2c1CCCC2	-16.0	-4.0	38.5	-27.1	0.1%	i	2.5	-1.1	0.734
O=C1CC(N2CCN(c3ccc(F)cc3)CC2)C(=O)N1c1ccc2c(c1)OCO2 (stereo not drawn)	6.5	8.2	1.6	0.9	-8.2%	i	-0.8	66.0	0.69
CC(NC(=O)C(=O)NN=C1CCCCCCCCCCC1)c1ccccc1 (stereo not drawn)	·	·	·	·	10.2%	·	5.9	-1.2	0.692
CCCNC(=O)[C@@H]1[C@@H](CO)[C@@H]2Cn3c(ccc(-c4ccc(F)cc4)c3=O)[C@H]1N2C	-4.3	3.5	-2.7	-1.6	·	i	·	·	·
O=C(C[C@@H]1C[C@@H]2c3cc(NC(=O)Nc4ccc(C(F)(F)F)cc4)ccc3O[C@@H]2[C@@H](CO)O1)NCc1cccnc1	-0.5	-1.4	1.7	-2.5	·	i	·	·	·
CC(Sc1nnc(NC2CC2)s1)C(=O)Nc1ccc(S(N)(=O)=O)cc1 (stereo not drawn)	1.2	5.6	-0.8	-5.7	-5.9%	i	4.8	9.7	0.672
COc1ccc(CNC(=O)/C=C/c2ccc(OCCCF)cc2)cc1OC	·	·	·	·	7.9%	·	0.7	1.4	0.715
CCCOCC(O)COc1ccccc1C(=O)N1CCOCC1 (stereo not drawn)	·	·	·	·	1.0%	·	0.0	-3.7	0.724
O=C(CN(CC1CCCO1)C(=O)CNS(=O)(=O)c1ccccc1)NCc1ccccc1 (stereo not drawn)	·	·	·	·	4.9%	·	2.7	-3.7	0.743
CN1c2ccc(-c3cccc(F)c3)cc2[C@H]2[C@H](CCN2C(=O)c2ccc3c(c2)OCO3)[C@H]1CO	-1.4	-33.2	20.2	1.5	·	i	·	·	·
CCn1nc(C(=O)NNC(=O)COc2ccc(OC)cc2)c2ccccc2c1=O	·	·	·	·	·	·	2.1	-13.9	0.682
Cn1nc(C(C)(C)C)cc1C(=O)NCc1cc(F)cc2c1OCOC2	-2.4	-7.5	-0.7	-0.8	-5.1%	i	-0.4	5.9	0.679
CCc1ccc(NC(=O)C(C)Sc2nnc(CN3CCCC3)o2)cc1 (stereo not drawn)	3.2	13.7	-2.4	-0.1	-12.0%	i	-7.6	4.8	0.713
CC(=O)c1sc(N)c(C(=O)OC(C)C)c1C	·	·	·	·	-2.1%	·	0.8	-1.1	0.705
CCC(C)C(NC(=O)C1CCC(C)CC1)C(=O)NCCCN1CCCCC1CC (stereo not drawn)	6.8	3.8	-1.6	2.4	-1.4%	i	-4.4	-5.3	0.713
CC(C)Cn1c(=O)[nH]c(=O)c2c(C(F)(F)F)cc(-c3ccccc3)nc21	10.9	2.0	0.1	5.0	11.8%	i	-2.9	13.6	0.719
CS(=O)(=O)Nc1ccc2c(c1)[C@@H]1C[C@H](CC(=O)NCc3ccccc3F)O[C@@H](CO)[C@@H]1O2	-0.2	5.8	-0.7	0.3	·	i	·	·	·
CO[C@@H](CN(C)S(=O)(=O)c1ccccc1)[C@@H](C)CN(C(=O)Nc1ccccc1F)[C@@H](C)CO	-4.8	-4.2	-1.6	-0.2	·	i	·	·	·
CCOCCCNC(c1ccccc1)c1ccncc1 (stereo not drawn)	16.1	13.6	0.0	-15.8	-6.4%	i	-0.9	-5.6	0.668
NC(=O)C1CCN(C(=O)COc2ccc(Nc3ccccc3)cc2)CC1	4.9	1.2	6.2	-1.5	30.5%	i	2.2	99.5*	0.674
CCC1(CC)NC(=O)N(CC(=O)OCC(=O)Nc2cc(OC)ccc2OC)C1=O	-0.4	12.6	-2.5	0.1	·	i	1.5	-11.9	0.709
O=C(Nc1ccc2oc(-c3ccccc3F)nc2c1)c1ncn[nH]1	·	·	·	·	-6.3%	·	-0.1	-2.4	·
c1ccc2c(CN3CCCCC3)csc2c1	·	·	·	0.0	0.0%	i	-3.5	0.1	0.692
CCCN(CCC)S(=O)(=O)c1ccc(NC(=O)COc2ccccc2)cc1	·	·	·	·	6.8%	·	-1.0	3.8	0.679
C[C@@H]1CN([C@@H](C)CO)S(=O)(=O)c2ccc(C#C[C@@H](C)O)cc2O[C@@H]1CN(C)Cc1ccncc1	1.3	4.2	-1.1	-0.9	·	i	·	·	·
CCN(CC)S(=O)(=O)c1ccc(OC(C)C)c(NC(=O)C2=COCCO2)c1	-18.1	-37.1	0.5	-1.0	·	i	-1.5	-10.8	·
C[C@@H]1CN([C@H](C)CO)C(=O)Cc2cc(NC(=O)Nc3ccccc3)ccc2O[C@H]1CN(C)Cc1ccc(C(F)(F)F)cc1	0.0	11.8	2.5	-1.5	·	i	·	·	·
COc1ccc(C(=O)Nc2cc(OC)nc(OC)n2)cc1	·	·	·	·	13.3%	·	-3.3	3.0	0.632
CCCN1CCN(S(=O)(=O)c2c(C)[nH]c(C)c2C(=O)N2CCCCC2)CC1	1.6	4.2	-0.7	1.2	-0.6%	i	-1.8	-1.9	0.704
CC(=O)N[C@@H](CC(=O)O)C(=O)O	·	·	·	1.8	·	i	-0.8	·	·
O=C1C(=O)N(CCN2CCOCC2)C(c2ccccn2)/C1=C(/O)c1ccc(F)cc1 (stereo not drawn)	·	·	·	·	?	·	3.6	-65.9	0.73
NC1=NC(=O)/C(=C/c2ccc(Br)cc2)S1	-1.6	7.4	2.0	-1.5	·	i	-3.9	-1.1	0.717
O=C(NC1CCCCC1NC(=O)c1cccs1)c1cccs1 (stereo not drawn)	·	·	·	·	28.5%	·	1.1	·	0.726
Cn1nnnc1SCC(=O)C(C)(C)C	15.6	6.7	0.0	-0.9	25.2%	i	-3.2	-3.3	0.681
CC(CN1CCCCC1)OC(=O)C(C)(c1ccccc1)c1ccccc1 (stereo not drawn)	·	·	·	·	3.0%	·	-1.2	-18.9	0.735
Cc1ccc(C)c(N2N=C(C(=O)OCc3nnc(-c4ccccc4Br)o3)CCC2=O)c1	0.6	6.3	-0.6	-4.0	·	i	4.7	·	·
Cc1ccc(NC(=O)c2cc(-c3ccccc3O)n[nH]2)cc1C	2.0	13.0	-1.7	5.1	1.4%	i	-2.2	-2.4	0.689
CCc1ccc(OCCCC(=O)O)c(Br)c1	-6.6	-2.9	2.2	4.2	10.3%	i	3.2	-5.6	0.652
Cc1ccc(C(=O)OCC(=O)N(Cc2ccccc2)C(C)C)cc1C	-13.2	-27.3	-2.4	-0.3	12.5%	i	-0.9	-3.7	0.633
COc1ccc2c(c1)cc(C(=O)N[C@H](C(=O)N1CCC[C@H]1C(=O)O)C(C)C)n2C	-3.3	4.9	-1.0	-3.2	·	i	0.3	-36.0	0.761
Cc1ccc(N(Cc2cc3ccccc3[nH]c2=O)C(=O)c2cccs2)cc1	·	·	·	·	-6.1%	·	0.0	1.4	0.681
Cc1ccc(Nc2nc3c([nH]2)c(=O)[nH]c(=O)n3C)cc1	·	·	·	·	-4.1%	·	-1.4	-6.1	0.787

Next results follow:
SMILES	rRNA inh HTS	rRNA inh HTS OD600	rRNA inh HTS RFP	AF4-AF9 inh	Vif A3G	FGF22 binding	HNF4A DNA FP	ALR H2O2 inh	Ecoli growth
COc1ccc(Nc2cc(Nc3ccccc3)ncn2)cc1	11.2	6.9	-0.4	-0.5	0.2%	i	5.7	-4.0	0.701
Cc1nnc(SCCN2CCOCC2)n1C	·	·	·	·	1.6%	·	5.2	·	0.634
COc1ccc(NC(=O)c2c(-c3c(Cl)cccc3Cl)noc2C)cn1	-2.2	1.3	2.1	-1.3	4.3%	i	1.4	-4.1	0.696
O=C(O)C1CCCCC1C(=O)Nc1nc(-c2cccs2)cs1 (stereo not drawn)	·	·	·	·	-11.2%	·	1.0	-1.0	0.731
O=C(Nc1ccccn1)c1ccc(Br)c(S(=O)(=O)N2CCCCC2)c1	8.5	-4.5	-9.4	-10.8	-9.1%	i	-1.6	-10.3	0.644
Cc1ccc(-n2c(N)c(C#N)c(-c3ccc(Cl)cc3)c(C#N)c2=O)cc1	·	·	·	·	-44.4%	·	1.3	-8.1	0.704
COc1ccccc1S(=O)(=O)N[C@@H]1C=C[C@@H](CC(=O)N2CCCCC2)O[C@H]1CO	3.0	9.1	-1.3	-12.0	·	i	·	·	·
CC(=O)N1CC[C@@H]2[C@H](CO)Nc3ccc(-c4cccc(F)c4)cc3[C@@H]21	9.2	6.9	-5.2	-3.9	·	i	·	·	·
COc1ccc(S(=O)(=O)N2CCCC2)c(C)c1C	·	·	·	·	20.6%	·	0.1	-2.8	0.64
COc1ccc(C(=O)Nn2c(C)nc3ccccc3c2=O)cc1[N+](=O)[O-]	5.4	4.1	0.4	-3.8	-3.8%	i	0.7	·	0.677

From PubChem BioAssay
